Compound activity as filed in PubChem BioAssay.
TSHR agonist = agonists of human thyroid stimulating hormone receptor. AID 926. P16473. HEK293-CNG-TSHR cells (CNG channel as cAMP sensor), membrane potential dye, cAMP. 73,000 compounds, 0.48% hits. Potency, µM (top dose mostly 57.1 µM), inactives show top-dose activation, most hits filed as activators; active = well fitted activation curve of enough size with the parental cells flat; inconclusive = any curve in the parental cells; inactive = parental cells flat and receptor cells flat or falling; also: potency is read from the fitted curve at half-maximal effect; % of control where 0% means no effect; weak receptor curves with flat parental cells got no call and are not listed
Target sequence (P16473 whole entry, looked up): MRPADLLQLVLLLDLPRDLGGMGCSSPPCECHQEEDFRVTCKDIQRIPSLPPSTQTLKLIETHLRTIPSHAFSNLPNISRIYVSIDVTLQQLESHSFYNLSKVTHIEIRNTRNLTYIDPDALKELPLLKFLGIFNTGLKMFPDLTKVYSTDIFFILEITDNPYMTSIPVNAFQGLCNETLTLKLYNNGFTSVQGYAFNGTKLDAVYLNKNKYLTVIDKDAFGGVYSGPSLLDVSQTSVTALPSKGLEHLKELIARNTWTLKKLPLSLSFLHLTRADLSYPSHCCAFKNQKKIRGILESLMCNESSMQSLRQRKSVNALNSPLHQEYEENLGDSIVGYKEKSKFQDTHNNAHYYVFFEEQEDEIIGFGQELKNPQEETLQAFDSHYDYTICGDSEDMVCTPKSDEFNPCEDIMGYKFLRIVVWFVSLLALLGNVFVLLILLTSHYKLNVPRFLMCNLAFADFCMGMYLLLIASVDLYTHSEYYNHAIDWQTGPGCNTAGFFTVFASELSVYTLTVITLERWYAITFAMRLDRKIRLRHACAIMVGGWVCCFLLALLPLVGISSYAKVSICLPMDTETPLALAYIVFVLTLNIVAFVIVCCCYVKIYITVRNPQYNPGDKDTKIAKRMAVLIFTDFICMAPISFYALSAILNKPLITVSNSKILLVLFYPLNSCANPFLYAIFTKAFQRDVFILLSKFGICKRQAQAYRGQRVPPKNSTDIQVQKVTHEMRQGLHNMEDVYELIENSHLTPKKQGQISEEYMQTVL
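HEK 293 cells stably expressing TSHR and a modified CNG channel, with CNG-only parental cells as counterscreen, were preloaded 60 min at room temperature with membrane potential dye containing 100 uM RO 20-1724. Compound exposure was 30 min, and depolarization was read as fluorescence at 590 nm.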
A647 fluor = A647 region autofluorescence | Compound fluorescence, A647 channel (570/671 nm), Tris buffer | max dye-equivalent concentration, M | 59,000 tested, under 10 active | AID 592; active means above 1 µM dye equivalent; inconclusive means 0.1 to 1 µM; inactive means 0.1 µM or less;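 also: values scaled relative to a standard on each plate; highest value over a series up to 38 µM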
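Spectral profiling of library compounds in pH 8.0 Tris: 15 min room-temperature incubation, single ex/em pair (570/671 nm), response normalized to Alexa 647 equivalents.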
A488 fluor = A488 region autofluorescence; compound autofluorescence, A488 spectral region, dye equivalency; stronger effect = higher value; max dye equivalency, M; 59,000 compounds, 0.1% hits; AID 591; active = above 10 nM dye equivalent; inconclusive = 1 to 10 nM; inactive = 1 nM or less; about half of its hits are not listed in these tables;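 also: highest value over a series up to 38 µM; compound alone in buffer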
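Compounds pin-transferred into 100 mM Tris buffer, pH 8.0, incubated 15 min at room temperature, then imaged with 480 nm excitation/540 nm emission filters. Fluorescence converted to Alexa 488 dye-equivalent concentration via an on-plate six-point A488 standard curve.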
AID923 = qHTS Assay for Allosteric/Competitive Inhibitors of Caspase-1: Spectroscopic Profiling in AFC Spectral Region; compound fluorescence, AFC spectral region (405/520 nm); almost no hit is shown here; Potency, µM (titrated, usually from 57.5 µM), for the others: at the top dose fluorescence increase, actives largely listed as activators; 75,000 compounds, 1.1% hits; AID 923, 2007; active = well fitted activation curve with a large enough effect; inconclusive = small, poorly fitted or top-dose-only effect;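 also: potency is read from the fitted curve at half-maximal effect; 0% is about no effect; scaled to a free AFC standard on each plate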
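Compound autofluorescence profiled at 405 nm ex/520 nm em during kinetic caspase 1 run (50 nM enzyme, 5 uM Ac-WEHD-AFC, HEPES pH 7.5, 10 mM DTT). Titration up to 57 uM; baseline from regression intercept, normalized to AFC standard curve.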
Resorufin autofl = resorufin region autofluorescence | Compound fluorescence, resorufin region 547/598 nm, buffer; stronger effect = higher value | max dye-equivalent concentration, M | 59,000 compounds, 0.04% hits | AID 588; active = above 10 nM dye equivalent; inconclusive = 1 to 10 nM; inactive = 1 nM or less; a few of its hits are not listed in these tables; also: highest value over a series up to 38 µM
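Read-out: intrinsic compound fluorescence at ex 547/em 598 nm after 15 min at RT in pH 8.0 Tris (100 mM). Values expressed as resorufin-equivalent concentration from per-plate standard series.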
Starred values were filed as active, the others as inactive; i = inactive; ? = inconclusive; . = no result given; & = joins results of further samples; [ ] = remark or other dose.

Structure	TSHR agonist	A647 fluor	A488 fluor	AID923	Resorufin autofl
COc1ccc(CNC(=O)c2ccc3nccnc3c2)cc1	3%	4.7e-09	i	0.1%	i
Cc1ccc(N[C@H](c2ccccc2)c2ccc3cccnc3c2O)cc1	4%[11.4 µM]	1.5e-08	i	0.3%[11.5 µM]	i
c1ccc(Cc2nn[nH]n2)cc1	.	1.2e-09	i	.	i
COC(=O)c1ccc(CSc2nc(C)nc3c2c(=O)n(C)c(=O)n3C)o1	?	.	.	-1.1%	.
COc1cc(NC(=O)Cc2nn(C)c(=O)c3ccccc23)cc(OC)c1	.	1e-09	i	0.9%	i
COc1cccc(CNC(=O)C2CCN(C(=O)N(C)C)CC2)c1	-6%	1e-09	i	-1.0%	i
O=C(Cn1cc2c(n1)CCCCC2)N1CCCCC1	4%	.	.	-3.3%	.
COc1ccc(-c2[nH]c(-c3ccc(F)cc3)nc2SCC(=O)NCc2ccco2)cc1OC	19%	.	.	-0.8%	.
c1cncc(-c2nnc3sc(-c4ccco4)nn23)c1	.	2.7e-09	i	.	i
COc1cccc2c(=O)c(C(=O)NCc3cccs3)c[nH]c12	-6%	1e-09	i	0.6%	i
O=C(CSc1nnc(-c2ccc(O)cc2)n1Cc1ccco1)N1CCc2ccccc2C1	27%	7.4e-09	i	-0.5%	i
O=C(NCCCN1CCN(Cc2ccccc2)CC1)C1CCN(S(=O)(=O)N2CCCC2)CC1	5%	1.7e-09	i	0.3%	i
COc1ccc(CNc2cc(-c3cccc(C#N)c3)ncn2)c(OC)c1	?	1.6e-09	i	3.0%	i
c1cnc(-c2nnc3n2CCCCC3)cn1	1%[11.4 µM]	1e-09	i	0.1%	i
O=C(NCc1ccccn1)c1c(O)c2cccc3c2n(c1=O)CC3	9%	1.5e-08	i	-0.4%	i
Sc1ccc2ccccc2c1CNCc1ccccc1	-2%[11.4 µM]	2.4e-08	i	6.5%[11.5 µM]	i
COc1ccc(-c2nnc(SCC#CCO)o2)cc1OC	5%	6.3e-09	i	-0.3%	i
CCOC(=O)CSc1nnc(CNC(=O)c2ccc(OC)cc2OC)n1C	5%	7.3e-09	i	-0.8%	i
COc1ccc(C)cc1S(=O)(=O)N(CC(=O)N1CCOCC1)Cc1ccccc1	15%	2.7e-08	i	-0.1%	i
CCC[C@H]1C(=O)N2C(N(C)C)=Nc3ccc(C)cc3N2C1=O	-5%[25.6 µM]	3.1e-09	i	-1.6%[25.7 µM]	i
CCOC(=O)c1c(COC(=O)c2ccco2)nc2ccccc2[n+]1[O-]	26%	3e-09	i	0.9%	i
O=C(NCC1CCCO1)c1ccccc1-c1nc(-c2ccc(F)cc2)no1 (centres undefined)	4%	1.2e-08	i	-0.6%	i
O=C(CC1c2ccccc2Oc2ccccc21)N1CCN(c2ccccn2)CC1	-1%	.	.	0.3%	.
O=C1Nc2cc3c(cc2Sc2ccccc21)OCCO3	?	1e-09	i	-2.2%	i
Cc1ccccc1-n1c(=O)cc(NCC2CCCO2)[nH]c1=O (centres undefined)	?	1e-09	i	-0.4%	i
COc1ccc2c(c1OC)C(=O)N(c1ncn[nH]1)C2	2%	3.8e-08	i	0.7%	i
COc1cccc(-c2nc(CS(=O)(=O)CC(=O)Nc3cc(C)ccc3C)c(C)o2)c1	?	.	.	-1.3%	.
CCOc1ccc(NC(=O)c2ccccc2CO)cc1	11%	5.5e-09	i	-1.0%	i
Brc1ccc(OCCn2ccnc2)cc1	8%	.	.	0.2%	.
O=C(O)c1ccc(C2SCC(=O)N2Cc2ccccc2)cc1 (centres undefined)	1%	2.7e-08	i	-0.7%	i
CC(NC(=O)COc1ccccc1)C1COc2ccccc2O1 (centres undefined)	-8%	4.3e-09	i	-0.5%	i
COc1cccc(-c2nc(NC(C)(C)C)c3ccccc3n2)c1O	.	1e-09	i	.	i
CCOC(=O)C12CNC(=O)C(C(=O)OCC)(CNC1=O)C2	1%	4.7e-08	i	1.8%	i
CCOC(=O)c1cnc(SCC(=O)Nc2ccc(NC(C)=O)c(OC)c2)nc1N	-3%	2e-08	i	0.3%	i
COc1ccc(Cn2nnnc2C(c2cc(OC)ccc2OC)N2CCC(C(N)=O)CC2)cc1 (centres undefined)	14%	4.7e-09	i	0.6%	i
COc1ccccc1-c1c(C)oc2c(CN3CCN(C)CC3)c(O)ccc2c1=O	.	3.3e-08	i	.	i
COc1cccc(NC(=O)CN2CCN(S(=O)(=O)c3ccc(C(C)C)cc3)CC2)c1	?	1e-09	i	-1.0%	i
COc1ccc([C@H](O)c2ccccn2)cc1	4%[11.4 µM]	4e-08	i	-0.2%[11.5 µM]	i
O=C(NC1CCCC1)C(c1cccs1)N(Cc1ccco1)C(=O)Cn1nnc(-c2cccs2)n1 (centres undefined)	?	1.6e-08	i	1.5%	i
COCCNC(=O)C(C)N(c1ccc(Oc2ccccc2)cc1)S(C)(=O)=O (centres undefined)	-2%	.	.	0.3%	.
CCOC(=O)C1=C(C)N(C)C(C)=C(C(=O)OCC)C1c1cccnc1	?	1e-09	i	1.9%	i
CCCC(=O)Nc1ccc(NC(=O)C2CC2)cn1	-2%	3.7e-09	i	0.6%	i
O=C(Nc1nnc(C2CC2)s1)C1Cc2ccccc2CN1S(=O)(=O)c1cccs1 (centres undefined)	4%	2.7e-08	i	1.0%	i
COc1ccc(OC)c(C2=NO[C@@H]3C(=O)N(c4cc(Cl)ccc4OC)C(=O)[C@H]23)c1	12%	3.2e-08	i	0.3%	i
COc1cccc([C@@H]2Oc3ccc(OC)cc3/C(=N/O[C@@H](C)c3cc(-c4c(C)cc(C)cc4C)no3)[C@@H]2O)c1	1%[11.4 µM]	.	.	3.8%[11.5 µM]	.
O[C@@H]1[C@@H]2c3cc4c(cc3CN3CCC(=C[C@@H]1O)[C@H]23)OCO4	6%[25.6 µM]	1e-09	i	1.4%[25.7 µM]	i
CN1CCN(c2nc3c(c(=O)[nH]c(=O)n3C)n2CCSc2nc3ccccc3s2)CC1	1%	.	.	0.4%	.
Cc1onc(-c2c(Cl)cccc2Cl)c1C(=O)NCCCN1CCOCC1	2%	1.8e-09	i	0.8%	i
Cc1ccc(C(=O)Nc2ccc(S(=O)(=O)N3CCc4ccccc43)cc2)o1	-8%	1e-09	i	0.3%	i
CC1CCN(c2nc3c(c(=O)n(C)c(=O)n3C)n2Cc2ccccc2)CC1	?	1.4e-08	i	-0.7%	i
COCc1nnc(SCC(=O)Nc2cccc(Cl)c2C)n1-c1ccccc1	14%	.	.	-0.1%	.
O=C(O)c1cc2cc(OCc3ccccc3)ccc2[nH]1	-11%	6.1e-09	i	-0.9%	i
Cc1cc(C(=O)N2CCN(c3ncccn3)CC2)cs1	-9%	1.5e-08	i	1.0%	i
O=C(Nc1ccc(O)cc1)C1CC=CCC1 (centres undefined)	0%	.	.	-1.1%	.
Cc1nn(CC(=O)O)c(C)c1C	6%	1e-09	i	0.5%	i
CCOc1ccc(NC(=O)CSc2nnnn2CC(=O)O)cc1	2%	2.2e-09	i	-1.0%	i
Cc1c(/C(O)=C2/C(=O)C(=O)N(CCN3CCOCC3)C2c2cccs2)cnn1-c1ccccc1 (centres undefined)	-2%	3.5e-08	i	-1.9%	i
CC(C)NC(=O)CN(CCc1ccccc1)S(C)(=O)=O	?	1e-09	i	-0.2%	i
Clc1cccc(CSc2nnc(-c3ccccn3)n2Cc2ccco2)c1	27%	1e-09	i	3.9%	i
CCCOc1ccc(C2C(C(=O)c3ccc(C)o3)=C(O)C(=O)N2Cc2cccnc2)cc1 (centres undefined)	13%	3e-08	i	-1.4%	i

Filtered by structure, the entries above with fluorine (2)
Structure	TSHR agonist	A647 fluor	A488 fluor	AID923	Resorufin autofl
COc1ccc(-c2[nH]c(-c3ccc(F)cc3)nc2SCC(=O)NCc2ccco2)cc1OC	19%	.	.	-0.8%	.
O=C(NCC1CCCO1)c1ccccc1-c1nc(-c2ccc(F)cc2)no1 (centres undefined)	4%	1.2e-08	i	-0.6%	i

Later entries
Structure	TSHR agonist	A647 fluor	A488 fluor	AID923	Resorufin autofl
COc1ccccc1OCCSc1nnnn1-c1ccc(C)cc1	?	.	.	-1.6%	.
Cc1ccc(P(=O)(CC(=O)O)c2ccc(C)cc2)cc1	-5%	4.1e-08	i	0.1%	i
COC(=O)[C@@]1(Cc2ccc(OC)cc2)[C@H]2c3cc(C(=O)N(C)C)n(Cc4c(CO)[nH]cc(C)c4=O)c3C[C@H]2CN1C(=O)c1ccccc1	12%	.	.	-0.1%	.
Cc1csc2c(=O)n3c(nc12)CCCCC3	-1%	4.4e-08	i	-1.0%	i
CC(C)C1C(C#N)=C(N)Oc2n[nH]c(-c3ccccc3)c21 (centres undefined)	2%	8.1e-09	i	-0.2%	i
Fc1ccc(C(c2ccc(F)cc2)N2CCN(C/C=C\c3ccccc3)CC2)cc1	-17%	1e-09&1.4e-08	i	2.2%	i
COc1ccc(S(=O)(=O)N(CC(=O)N2CCN(C)CC2)c2ccccc2)cc1OC	2%	1.3e-08	i	-1.1%	i
O=C(CN1CCOCC1)N1CCc2ccccc2C(c2ccccc2)C1 (centres undefined)	?	1e-09	i	0.5%	i
O=C(Cn1c(=O)oc2ccccc21)Nc1ccc2c(c1)OCCO2	2%	1.6e-08	i	0.6%	i
COC(=O)c1c(-c2cccs2)csc1NC(=O)c1cccnc1	?	5.6e-09	i	3.9%	i
COc1ccc(C(=O)Oc2ccc(C(C)=O)cc2)c(OC)c1	-2%	1e-09	i	-0.6%	i
COc1cccc(CC(NC(C)=O)C(=O)NC2CCN(c3nc(C)cc(C)c3C#N)CC2)c1OC (centres undefined)	-2%	3.1e-08	i	-1.2%	i
COc1ccccc1N1CCN(C(=O)c2cc3cc(Br)ccc3oc2=O)CC1	6%	.	.	3.3%	.
COc1ccc(Cl)cc1NC(=O)COC(=O)CCNC(C)=O	-5%	1e-09	i	-0.7%	i
CC(=NCCN1CCOCC1)C1=C(O)c2ccccc2C1=O	-8%	.	.	3.1%	.
O=S1(=O)CCN(c2ccccc2CC(c2c[nH]c3ccccc23)c2c[nH]c3ccccc23)CC1	4%[11.4 µM]	5.1e-08	i	-1.1%[11.5 µM]	i
C[C@@H](CCC[C@@H]1SC[C@H]2NC(=O)N[C@H]12)C(=O)O	-3%[11.4 µM]	3.7e-09	i	1.2%[11.5 µM]	i
CCOC(=O)C1CCN(S(=O)(=O)Cc2ccc(Cl)cc2)CC1	.	1e-09	i	-0.7%	i
CCCc1cc(C(=O)Nc2nnc(C)s2)cs1	4%	.	.	1.4%	.
N#CCCCSc1nnnn1-c1cccc(Cl)c1	0%	1.1e-08	i	-1.0%	i
CCNC(=O)c1sc(=S)n(CC)c1N	22%	7.1e-09	i	-0.5%	i
COc1cccc(OCc2nnc(SC)n2C)c1	0%	2.2e-09	i	0.0%	i
CC1CN(C(=O)c2cccc(S(=O)(=O)N3CCOCC3)c2)CC(C)O1 (centres undefined)	-3%	1.1e-09	i	0.6%	i
O=C(NCCCN1CCN(c2ccccc2F)CC1)C1CCC(=O)N1C1CCCC1 (centres undefined)	4%	.	.	0.0%	.
Cc1cc(Cl)c(S(=O)(=O)Nc2ccccn2)cc1OCC(N)=O	0%	1e-08	i	-2.1%	i
O=C(Oc1ccc2c(c1)OCO2)c1cc2c(s1)CCC2	2%	2.2e-08	i	1.6%	i

This is a subset. The share of hits here may be higher or lower than overall.
